Source: PubChem BioAssay
Ecoli rRNA inh = reduced GFP signal of wild-type E. coli, primary screen, bacterial rRNA inhibitor project, GFP/RFP fluorescence, OD600, single point; GFP signal change (wild-type ribosome), % (concentration not given with the values); hit rate 1.6% among 350,000; E. coli WT GFP vs humanized-ribosome RFP mutants, 24 h; stronger effect = lower value; DMSO median 0, no signal -100;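 active = significant combined selectivity score with lowered wild-type GFP, culture density cut under 30%, mutant RFP and density less affected; inactive = any of these conditions unmet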; note: one replicate is shown; some compounds called inactive have numbers as strong as hits
AF4-AF9 inh = inhibitors of AF4 peptide binding to AF9, primary screen, biochemical, AlphaScreen, biotin-AF4 peptide, FLAG-AF9, single point; Protein AF-9 (Homo sapiens), P42568; inhibition, % at 10 µM; hit rate 0.47% among 350,000; AID 651704, 2012;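 active = every replicate reaching a set inhibition limit, whatever the replicate mean, cut at about 25% in these data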;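 note: 0% = plate neutral control median and 100% = total signal loss; the record names both 10 and 1 µM as test concentration; the first replicate is given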
Target sequence (P42568 whole entry, looked up): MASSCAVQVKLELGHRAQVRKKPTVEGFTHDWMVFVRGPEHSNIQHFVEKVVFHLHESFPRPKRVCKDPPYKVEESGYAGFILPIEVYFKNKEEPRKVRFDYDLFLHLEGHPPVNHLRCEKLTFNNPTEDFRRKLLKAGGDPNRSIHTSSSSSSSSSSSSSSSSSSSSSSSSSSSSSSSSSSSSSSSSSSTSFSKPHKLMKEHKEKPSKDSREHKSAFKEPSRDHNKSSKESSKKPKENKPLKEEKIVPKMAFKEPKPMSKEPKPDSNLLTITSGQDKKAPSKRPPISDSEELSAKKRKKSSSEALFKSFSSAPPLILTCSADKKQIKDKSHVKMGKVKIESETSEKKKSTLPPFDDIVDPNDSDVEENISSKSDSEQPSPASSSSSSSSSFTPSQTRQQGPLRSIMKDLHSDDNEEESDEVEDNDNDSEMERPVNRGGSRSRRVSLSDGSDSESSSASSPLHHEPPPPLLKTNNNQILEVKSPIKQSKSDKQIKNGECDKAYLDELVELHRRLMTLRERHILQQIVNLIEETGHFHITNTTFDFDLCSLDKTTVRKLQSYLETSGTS
FGF22 binding = binders of human FGF22 protein, primary screen, FGF22 synaptogenesis inhibitor project, biophysical, thermal shift, single point; hit rate 1.5% among 340,000; recombinant FGF22 thermal shift, SYPRO orange fluorescence; percent of sucrose octasulfate shift, DMSO zero; Fibroblast growth factor 22 (Homo sapiens), Q9HCT0; calls only at 9.99 µM;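 active = melting point raised past a set limit in the mean and every replicate; three in four hits are not shown here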
Target sequence (Q9HCT0 whole entry, looked up): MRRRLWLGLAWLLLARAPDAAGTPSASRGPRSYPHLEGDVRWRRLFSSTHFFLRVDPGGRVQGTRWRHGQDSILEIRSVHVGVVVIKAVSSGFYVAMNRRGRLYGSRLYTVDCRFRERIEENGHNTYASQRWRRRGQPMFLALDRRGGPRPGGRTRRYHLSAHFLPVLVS
Ecoli rRNA inh OD600 = second read-out of Ecoli rRNA inh, no call of its own (marks repeat the call); OD600 change, %; measured here: OD600 growth;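 optical density of the mix in the first replicate; 0 = DMSO median and -100 = no signal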
Ecoli rRNA inh RFP = further read-out of Ecoli rRNA inh, marked with its call; RFP signal change, %; measured here: RFP humanized mutant strains;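 first replicate; 0 = DMSO median and -100 = no signal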
* marks the source's active call; other numbers are inactive results; i = inactive; + = active, no number; & = joins results of further samples.

Under each structure: AF4-AF9 inh	FGF22 binding	Ecoli rRNA inh	Ecoli rRNA inh RFP	Ecoli rRNA inh OD600
COCC(=O)Nc1ccc2c(c1)C(=O)N(C)[C@H]1CC[C@@H](CC(=O)N3CCc4ccccc4C3)O[C@H]1CO2
    -4.2	i	1	1.5	4
C[C@H]1CN([C@@H](C)CO)C(=O)c2cc(C#CC3CCCCC3)cnc2O[C@H]1CN(C)CC1CC1
    9.7	i	2	-3.9	0
CN(C)C(=O)c1cccc(-c2ccc([C@H]3[C@H]4CN(CC5CCOCC5)CCCCN4[C@H]3CO)cc2)c1
    -3.3	i	5	-0.9	8
CN1CCN(C(=O)C[C@@H]2CC[C@H]3[C@@H](COc4ccc(NC(=O)C5CCOCC5)cc4C(=O)N3C)O2)CC1
    1.0	i	-2	-3.5	-1
O=C(CN1CCOCC1)N[C@@H]1CC[C@H](CCn2cc(C3CCCCC3)nn2)O[C@H]1CO
    3.3	i	-1	-1.0	6
COc1ccccc1C(=O)N1C[C@H]2[C@@H](c3ccccc31)[C@H](CO)N2C(=O)Nc1ccccc1
    -1.6	i	3	1.3	-3
CCCCNC(=O)C[C@@H]1C[C@@]2(C(=O)OCC)CCC=C2N(Cc2ccc3c(c2)OCO3)C1=O
    0.6	i	-10	4.6	-7
CCCNC(=O)N1[C@H](C#N)[C@H](c2ccc(-c3ccc(C(=O)N(C)C)cc3)cc2)[C@@H]1CO
    7.1	i	3	-4.2	2
CCCCNC(=O)C1C(c2ccc(OC)cc2)=Nc2ccccc2N1C(=O)Cc1cc(OC)cc(OC)c1 (centres undefined)
    4.2	i	3	-6.1	0
CCC(=O)N(C)C[C@@H]1Oc2cc(C#Cc3ccccn3)ccc2S(=O)(=O)N([C@H](C)CO)C[C@H]1C
    -1.6	i	3	-2.1	-10
C[C@H](CO)N1C[C@H](C)[C@H](CN(C)C(=O)Nc2ccc(C(F)(F)F)cc2)Oc2ccc(NC(=O)Nc3ccc(C(F)(F)F)cc3)cc2CC1=O
    -11	i	0	-2.8	1
C[C@H]1CN([C@@H](C)CO)C(=O)c2cc(NS(C)(=O)=O)ccc2O[C@@H]1CN(C)C(=O)Nc1ccc(F)cc1
    -0.4	i	2	0.6	1
Cc1noc(C)c1NC(=O)Nc1ccc2c(c1)C(=O)N([C@@H](C)CO)C[C@H](C)[C@@H](CN(C)S(=O)(=O)c1c(C)noc1C)OCCCC[C@H](C)O2
    -4.6	i	2	-1.9	-2
C[C@@H]1CN([C@@H](C)CO)C(=O)c2cc(NS(C)(=O)=O)ccc2O[C@H]1CN(C)Cc1ccc2c(c1)OCO2
    -8.4	i	1	2.1	2
C[C@H](CO)N1C[C@H](C)[C@@H](CN(C)C(=O)Nc2cccc3ccccc23)Oc2ccc(NS(=O)(=O)c3ccc(Cl)cc3)cc2CC1=O
    0.7	i	0	-1.7	-3
Cc1ccc(S(=O)(=O)N2C[C@H](O)COC[C@H]3O[C@@H](CC(=O)NCc4ccc5c(c4)OCO5)CC[C@@H]32)cc1
    2.4	i	1	-1.1	5
O=C(C[C@H]1CC[C@@H](NS(=O)(=O)c2ccc(F)cc2)[C@@H](CO)O1)NC1CCCCC1
    -2.0	i	0	1.3	-4
O=C(CC1CC1)N1[C@@H](CO)[C@@H](c2ccccc2)C12CN(Cc1ccccc1)C2
    -0.2	i	-1	-1.5	7
CC(C)NC(=O)N(C)C[C@@H]1Oc2c(NC(=O)C3CCOCC3)cccc2C(=O)N([C@H](C)CO)C[C@H]1C
    1.6	i	5	1.4	9
COc1ccc(S(=O)(=O)N(C)C[C@H]2Oc3c(NC(=O)CCCCCC(=O)Nc4ccccc4N)cccc3C(=O)N([C@H](C)CO)C[C@H]2C)cc1
    0.9	i	0	4.0	-2

Remaining list, next part:
Under each structure: AF4-AF9 inh	FGF22 binding	Ecoli rRNA inh	Ecoli rRNA inh RFP	Ecoli rRNA inh OD600
Cc1cc(C(=O)Nc2ccc3c(c2)C(=O)N(C)[C@@H]2CC[C@H](CC(=O)NC4CCCC4)O[C@@H]2CO3)no1
    -1.8	i	2	2.1	5
COc1ccccc1-c1ccc2c(c1)[C@H]1[C@H](CCN1C(=O)C1CCCCC1)[C@@H](CO)N2
    13	i	1	16	-16
CS(=O)(=O)Nc1ccc2c(c1)[C@H]1C[C@H](CC(=O)NCc3ccncc3)O[C@@H](CO)[C@H]1O2
    -0.2	i	7	1.5	8
O=C(C[C@H]1CC[C@H]2[C@@H](COC[C@@H](O)CN2C(=O)c2ccncc2)O1)NCc1cc(F)cc(F)c1
    -13	i	2	-3.1	17
C[C@H]1CN([C@@H](C)CO)C(=O)c2cc(NS(=O)(=O)c3cn(C)cn3)ccc2O[C@@H]1CN(C)S(=O)(=O)c1ccccc1
    -11	i	4	0.1	0
O=C(NCC[C@@H]1CC[C@H](NC(=O)C2CCC2)[C@H](CO)O1)c1cc(Cl)cc(Cl)c1
    -4.0	i	-5	0.1	-5
COc1cccc(S(=O)(=O)Nc2ccc3c(c2)[C@@H]2C[C@H](CC(=O)NCc4ccc(Cl)cc4)O[C@@H](CO)[C@@H]2O3)c1
    0.4	i	3	-2.7	-17
CCC(=O)N1C[C@@H](C)[C@@H](OC)CN(C)C(=O)c2ccc(NC(=O)c3cnccn3)cc2OC[C@@H]1C
    -1.3	i	-1	-3.6	6
CCCNC(=O)C[C@@H]1C[C@H]2c3cc(NS(C)(=O)=O)ccc3O[C@H]2[C@H](CO)O1
    -1.0	i	2	-1.5	-1
CC=Cc1ccc2n(c1=O)C[C@@H]1[C@@H](CO)[C@H](C(=O)N(C)C)N(CCC(F)(F)F)[C@H]21 (mixture of isomers)
    0.1	i	3	-1.5	11
N#Cc1cccc(-c2ccc([C@H]3[C@@H](CO)N4CCCCN(C(=O)Nc5cccc(F)c5)C[C@@H]34)cc2)c1
    0.9	i	-1	0.4	3
C[C@@H]1CCCCO[C@@H](CN(C)C(=O)C2CCCCC2)[C@H](C)CN([C@@H](C)CO)C(=O)c2cc(NC(=O)C3CCCCC3)ccc2O1
    -1.7	i	-27	8.3	-59
COc1ccccc1C#Cc1cnc2c(c1)C(=O)N([C@@H](C)CO)C[C@H](C)[C@@H](CN(C)C(=O)CN(C)C)O2
    13	i	5	1.0	-3
C[C@H](CO)N1C[C@H](C)[C@@H](CN(C)C(=O)c2ccccc2)OCCCC[C@H](C)Oc2ccc(NS(=O)(=O)c3ccc(Cl)cc3)cc2C1=O
    4.1	i	4	7.5	-4
O=C(C[C@H]1CC[C@H]2[C@@H](COC[C@H](O)CN2CC2CCCCC2)O1)NCc1ccc(F)cc1
    0.1	i	-2	-2.5	-3
C[C@H](CO)N1C[C@H](C)[C@H](CN(C)Cc2ccccc2)Oc2ccc(NS(=O)(=O)c3ccc(Cl)cc3)cc2CC1=O
    4.2	i	-9	30	-52
CCC(=O)N1C[C@@H](C)[C@H](OC)CN(C)C(=O)c2ccc(NS(C)(=O)=O)cc2OC[C@H]1C
    -0.7	i	-2	-0.9	2
COc1ccccc1C#CC1=CC(=O)C[C@H](c2ccc(F)cc2)C1
    12	i	-9	-3.6	-21
COc1ccc2c3c(n(C)c2c1)[C@H](CO)N(C(C)=O)CC31CCN(C(=O)c2ccccc2)CC1
    2.4	i	-2	-1.2	1
Cc1ccc(-c2ccc3c(c2)O[C@H](CN(C)C(=O)CC2CC2)[C@@H](C)CN([C@@H](C)CO)S3(=O)=O)cc1
    1.8	i	-18	18	-50

(listing goes on)
Under each structure: AF4-AF9 inh	FGF22 binding	Ecoli rRNA inh	Ecoli rRNA inh RFP	Ecoli rRNA inh OD600
COc1cc2c(cc1OC)C(C(=O)O)C(c1ccc3c(c1)OCO3)N(C)C2=O (centres undefined)
    -6.5	i	15	2.3	21
COc1ccc(S(=O)(=O)N(C)C[C@@H]2Oc3cc(C#CC4CCCC4)ccc3S(=O)(=O)N([C@H](C)CO)C[C@H]2C)cc1
    -0.1	i	5	-3.3	6
Cc1ccc(Cl)cc1NCN1C(=O)c2ccccc2C1=O
    -2.6	i	6	-1.7	13
C[C@H](CO)N1C[C@H](C)[C@@H](CN(C)C(=O)Nc2ccccc2)OCc2cn(nn2)CCCC1=O
    -1.7&-0.6	i	2&13	-2.1&3.4	1&6
CO[C@@H]1CN(C)C(=O)c2cc(NC(=O)C3CC3)ccc2OC[C@H](C)N(C(=O)c2ccccc2F)C[C@@H]1C
    2.5	i	0	0.4	-2
Nc1ccccc1-c1nc2ccncc2[nH]1
    7.7	i	-4	-0.3	1
CCCNC(=O)[C@@H]1[C@@H](CO)[C@@H]2Cn3c(cccc3=O)[C@@H]2N1Cc1ccccn1
    -1.4	i	-2	-1.1	8
C[C@H](CO)N1C[C@H](C)[C@@H](CN(C)C)Oc2ccc(NC(=O)Nc3ccc4c(c3)OCO4)cc2C1=O
    -1.0	i	1	-1.7	0
CO[C@H]1CN(C)C(=O)c2ccc(NC(=O)C3CC3)cc2OC[C@@H](C)N(C(=O)C2CCCCC2)C[C@H]1C
    0.1	i	-2	1.7	-9
COc1ccc(S(=O)(=O)Nc2ccc3c(c2)C(=O)N([C@H](C)CO)C[C@H](C)[C@@H](CN(C)CC2CC2)OCCCC[C@H](C)O3)cc1
    -5.2	i	0	-0.9	-2
C[C@H]1CN([C@@H](C)CO)C(=O)Cc2cc(NC(=O)CCCCCC(=O)Nc3ccccc3N)ccc2O[C@@H]1CN(C)Cc1ccc(Cl)c(Cl)c1
    -0.6	i	-3	2.9	-5
COc1ccccc1-c1cnc(C(O)c2cc(C)ccc2C)[nH]1 (centres undefined)
    1.4	i	-11	0.9	-18
COc1ccc(NC(=O)Nc2ccc3c(c2)[C@@H]2C[C@H](CC(=O)N4CCc5ccccc5C4)O[C@H](CO)[C@@H]2O3)cc1
    3.0	i	-3	-0.8	-5
CCCNC(=O)Nc1ccc2c(c1)OC[C@H](C)N(C(C)=O)C[C@@H](C)[C@@H](OC)CN(C)C2=O
    -2.7	i	0	1.7	-2
C/C=C/c1cnc2c(c1)C(=O)N([C@H](C)CO)C[C@H](C)[C@@H](CN(C)C(=O)c1cccnc1)O2
    -1.2	i	5	-4.0	10
COCC(=O)Nc1ccc2c(c1)C(=O)N(C)C[C@H](OC)[C@H](C)CN(Cc1cccc(F)c1)[C@H](C)CO2
    2.9	i	2	1.6	5
C[C@@H]1CN([C@@H](C)CO)S(=O)(=O)c2ccc(C3=CCCC3)cc2O[C@@H]1CN(C)C(=O)C1CCCCC1
    -0.3	+	-1	7.4	-22
C[C@@H]1CN([C@H](C)CO)C(=O)c2cc(C#Cc3ccc(F)cc3)cnc2O[C@@H]1CN(C)CC1CCOCC1
    4.7	i	3	-1.8	-2
C[C@H](CO)N1C[C@H](C)[C@H](CN(C)Cc2ccccc2)Oc2ccc(NS(=O)(=O)c3ccc(F)cc3)cc2C1=O
    1.6	i	2	0.1	2
C[C@H](CO)N1C[C@H](C)[C@@H](CN(C)C)Oc2cc(C#Cc3ccc(F)cc3)ccc2S1(=O)=O
    4.7	i	2	23	-17
COc1ccccc1-c1ccc2c(c1)O[C@@H](CN(C)S(=O)(=O)c1ccccc1)[C@H](C)CN([C@@H](C)CO)S2(=O)=O
    0.2	i	-1	-3.4	0
C[C@@H]1CN([C@H](C)CO)C(=O)c2cc(/C=C/c3ccccc3)cnc2O[C@H]1CN(C)S(=O)(=O)c1ccc(F)cc1
    3.3	i	-4	4.6	12

The list is partial; the hit share may differ from the screen's.
